Vaccinia mCherry – vaccinia inhibition (mCherry reporter). Vaccinia virus mCherry reporter infection, fluorescence; about a quarter of the inactives have no number. Potency, µM (titrated, usually from 36.5 µM), for inactives: at the highest dose activity change, negative = inhibition, hits mostly inhibitors. 310,000 compounds, 0.63% hits; active = well fitted inhibition curve with a large enough effect; inconclusive = small, poorly fitted or top-dose-only effect; inactive = no such curve, though single readings can be large or run the other way; tested in A549 cells; note: nearly all actives have a fitted effect of over 35% in size; inactives centre near -10
Vaccinia Venus – vaccinia inhibition (Venus reporter). 330,000 compounds, 0.46% hits. Vaccinia virus Venus reporter expression, fluorescence. Potency, µM (doses to about 36.5 µM), for inactives: at the highest dose activity change, negative = inhibition, most hits filed as inhibitors; active means well fitted inhibition curve with a large enough effect; inconclusive means small, poorly fitted or top-dose-only effect; inactive means no such curve, though single readings can be large or run the other way; tested in A549 cells; note: nearly all actives have a fitted effect of over 30% in size; inactives centre near -10
Starred values were filed as active, the others as inactive; [ ] = dose if it differs, or a comment. % is set by controls: 0 for no effect and ±100 for the full control effect; potency is the fitted concentration of half-maximal effect.

CCOc1nc(NC(=O)NS(=O)(=O)c2ccccc2F)nc(-c2ccccc2)n1 was read as Vaccinia mCherry -9% and Vaccinia Venus 0%.
For O=C(NCCc1ccco1)C(=O)NCCC1CCCCN1S(=O)(=O)c1ccccc1 (centres undefined) the results were Vaccinia mCherry -15% and Vaccinia Venus -13%.
Screening CCOC(=O)c1c(NC(=O)CSc2nnc(C)o2)sc(C)c1C returned Vaccinia mCherry inactive[7.34 µM] and Vaccinia Venus 0%[7.34 µM].
`CCOCC(=O)Nc1cccc(OC)c1` gave Vaccinia Venus -25%.
CCO[C@H]1OC(C(=O)N2CCN(C)CC2)=C[C@@H](c2csc3ccccc23)[C@@H]1CCCO was read as Vaccinia mCherry -2% and Vaccinia Venus -15%.
Screening Cc1ccc(S(=O)(=O)NN=C2CCN(Cc3ccccc3)CC2)cc1 returned Vaccinia mCherry inactive and Vaccinia Venus -2%.
For CC1(C)OC(=O)C2=C(C[C@@H](CCC(F)(F)F)O[C@H]2c2ccc(F)cc2)O1 the results were Vaccinia mCherry 14% and Vaccinia Venus -6%.
`N#Cc1ccccc1NC(=O)C1SC(=Nc2ccccc2)C(C(=O)Nc2ccc(Cl)cc2)=C1N` (centres undefined) gave Vaccinia mCherry -15% and Vaccinia Venus -6%.
CCN(CC)c1ccc2oc(=O)c(C)nc2c1 was read as Vaccinia mCherry -10% and Vaccinia Venus 15%.
`COc1ccc(CC(=O)OCC(=O)NC2CCCC(C)C2C)cc1OC` (centres undefined) gave Vaccinia mCherry inactive and Vaccinia Venus -15%.
Screening COc1ccc(-c2cc(C(=O)Oc3ccccc3)c3cc(C)ccc3n2)cc1 returned Vaccinia mCherry -17% and Vaccinia Venus -20%.
Nc1c(C(=O)Nc2ccccc2)sc2nc3c(cc12)CN(Cc1ccccc1)CC3 was read as Vaccinia mCherry inconclusive and Vaccinia Venus inconclusive.
CNS(=O)(=O)c1ccc(NC(=O)c2ccc(Cl)cc2Cl)cc1 was read as Vaccinia mCherry inactive and Vaccinia Venus -15%.
CC(=O)c1ccc(OCCCC(=O)Nc2cccc(S(=O)(=O)N(C)C)c2)cc1 was read as Vaccinia mCherry -13% and Vaccinia Venus -10%.
Screening Cc1ccc(S(=O)(=O)N2CCCN(c3nc4cc(C)ccc4cc3C#N)CC2)cc1 returned Vaccinia mCherry inactive and Vaccinia Venus -9%.
`O=[N+]([O-])c1cccc(C2CC(c3ccccc3)=NN2c2ccccc2)c1` (centres undefined) gave Vaccinia mCherry -3% and Vaccinia Venus -22%.
Screening COc1ccccc1/C=N/Nc1cc(N(C)C)nc(N(C)C)n1 returned Vaccinia mCherry -22% and Vaccinia Venus -6%.
`O=C(NC1CCCc2ccccc21)c1ccc(Br)cc1` (centres undefined) gave Vaccinia mCherry -11% and Vaccinia Venus -20%.
For O=C(Nc1ccccc1)c1nc[nH]c1C(=O)NCCCCNC(=O)c1[nH]cnc1C(=O)Nc1ccccc1 the results were Vaccinia mCherry -5% and Vaccinia Venus -26%.
`CCOC(=O)N1CCN(C(=O)CC(=O)Nc2ccc3nc4n(c(=O)c3c2)CCCCC4)CC1` gave Vaccinia Venus inconclusive.

4 compounds picked at random from the list so far, as already listed:
Screening COc1ccccc1/C=N/Nc1cc(N(C)C)nc(N(C)C)n1 returned Vaccinia mCherry -22% and Vaccinia Venus -6%.
`COc1ccc(CC(=O)OCC(=O)NC2CCCC(C)C2C)cc1OC` (centres undefined) gave Vaccinia mCherry inactive and Vaccinia Venus -15%.
CNS(=O)(=O)c1ccc(NC(=O)c2ccc(Cl)cc2Cl)cc1 was read as Vaccinia mCherry inactive and Vaccinia Venus -15%.
CC(=O)c1ccc(OCCCC(=O)Nc2cccc(S(=O)(=O)N(C)C)c2)cc1 was read as Vaccinia mCherry -13% and Vaccinia Venus -10%.

Continuation:
`CCOC(=O)c1c(Nc2ccc(O)cc2)nnc(-c2ccccc2)c1-c1ccccc1` gave Vaccinia mCherry -11% and Vaccinia Venus -5%.
`COc1cccc(-c2cc(C(=O)Nc3c(C)n(C)n(-c4ccccc4)c3=O)no2)c1` gave Vaccinia mCherry inactive and Vaccinia Venus -11%.
`Cn1c(SCC(=O)Nc2ccc3c(c2)OCCO3)nnc1-c1cccnc1` gave Vaccinia mCherry inactive and Vaccinia Venus -9%.
`COc1cccc(CNC(=O)[C@@H]2CCCN2C(=O)[C@H]2CCCCN2C(=O)c2ccc(Cl)cc2)c1` gave Vaccinia mCherry inactive and Vaccinia Venus 1%.
For Cc1nc2sc(C(N)=O)c(N)c2c(-c2ccc(Br)cc2)c1C(=O)Nc1ccc(Cl)cc1 the results were Vaccinia mCherry -13% and Vaccinia Venus -15%.
Screening CCCCN(C(=O)CCC(=O)Nc1cc(C)on1)C(C(=O)NC1CCCC1)c1ccc(F)cc1 (centres undefined) returned Vaccinia mCherry inactive and Vaccinia Venus -18%.
Screening CCOc1ccc(CNC(=S)NCc2ccc(OCC)cc2)cc1 returned Vaccinia mCherry -18% and Vaccinia Venus -21%.
Screening COc1ccc(CC(=O)OCC(=O)Nc2ccc3[nH]c(=O)[nH]c3c2)cc1OC returned Vaccinia mCherry -14% and Vaccinia Venus 6%.
For CC1=C(C(=O)Nc2ccccc2)C(c2cccs2)n2nnnc2N1 (centres undefined) the results were Vaccinia mCherry -11% and Vaccinia Venus -9%.
For CC(C)=CCC/C(C)=C/CNC(=O)C[C@H]1C[C@H](C(=O)N2CCCCC2)[C@@]2(CCc3ccccc3)c3[nH]c4cc(CCC(=O)N(C)C)ccc4c3CCN2C1=O the results were Vaccinia mCherry -13% and Vaccinia Venus inconclusive.
For N#C/C(=N\Nc1ccc(Cl)cc1)C(=O)c1ccsc1 the results were Vaccinia mCherry inconclusive and Vaccinia Venus inconclusive.
For O=C(CCC(=O)N(CC(=O)NC1CCCC1)Cc1ccccc1)Nc1nccs1 the results were Vaccinia mCherry -9% and Vaccinia Venus 3%.
Screening CC(C)(C)OC(=O)N1CCC(c2c(C(=O)O)cnn2-c2ccccc2Cl)CC1 returned Vaccinia mCherry -11% and Vaccinia Venus 0%.
For CCc1cc(C(=O)c2ccc(OC)cc2)c(N)s1 the results were Vaccinia mCherry inconclusive and Vaccinia Venus -1%.
CN(C)CCSCc1nnc2n1-c1ccc(Cl)cc1C(c1ccccc1Cl)=NC2 was read as Vaccinia mCherry -10% and Vaccinia Venus -3%.
For O=C(CN(C(=O)C1CSC(=O)C1)c1ccc(F)cc1)NCc1ccc2c(c1)OCO2 (centres undefined) the results were Vaccinia mCherry -14% and Vaccinia Venus -5%.
Screening NS(=O)(=O)c1ccc(CNC(=O)Cc2ccccc2F)cc1 returned Vaccinia mCherry inactive and Vaccinia Venus -1%.
`O=C1CC(c2ccc(Cl)cc2)CC(=O)C1CS(=O)(=O)c1ccccc1` (centres undefined) gave Vaccinia mCherry -13% and Vaccinia Venus -6%.
O=C(Oc1ccccc1C(=O)Oc1ccccc1)c1cccnc1 was read as Vaccinia mCherry -3% and Vaccinia Venus -28%.
`COc1ccc(C2NC(c3ccc(OC)cc3)C(c3ccccc3)C(=O)C2c2ccccc2)cc1` (centres undefined) gave Vaccinia mCherry inconclusive and Vaccinia Venus -30%.
O=c1c(C(c2ccccc2)c2c(O)sc3ccccc3c2=O)c(O)sc2ccccc12 was read as Vaccinia mCherry -4% and Vaccinia Venus 0%.
Cc1ccc(N(CC(=O)Nc2c(C)n(C)n(-c3ccccc3)c2=O)S(C)(=O)=O)cc1C was read as Vaccinia Venus -12%.
For CSc1nnc(-c2ccccc2SC)o1 the results were Vaccinia mCherry -11% and Vaccinia Venus -9%.
Screening CC(C#N)Sc1nnc(-c2ccccc2F)n1C1CC1 (centres undefined) returned Vaccinia mCherry inactive and Vaccinia Venus -3%.
Cc1ccccc1OCCC(=O)N(CC(=O)Nc1ccccc1C(F)(F)F)Cc1ccco1 was read as Vaccinia mCherry -3% and Vaccinia Venus -17%.
COc1ccc(NC(=O)c2ccco2)cc1NC(=O)c1ccc(C)c(C)c1 was read as Vaccinia mCherry 1% and Vaccinia Venus -6%.
O=S(=O)(c1ccc(Br)s1)N1CCc2ccccc2C1 was read as Vaccinia mCherry -10% and Vaccinia Venus -12%.
For COc1ccc(/C=N/NS(=O)(=O)c2ccc(C)cc2)cc1 the results were Vaccinia mCherry -16% and Vaccinia Venus -17%.
`CCCN(C(=O)NCc1noc2ccc(C)cc12)c1ccc(Cl)c(Cl)c1` gave Vaccinia mCherry 5% and Vaccinia Venus -1%.
`CCCCOCCCNC(=O)c1cccs1` gave Vaccinia mCherry -1% and Vaccinia Venus -6%.

Already shown: entries from further up.
Cc1ccc(N(CC(=O)Nc2c(C)n(C)n(-c3ccccc3)c2=O)S(C)(=O)=O)cc1C was read as Vaccinia Venus -12%.
For CSc1nnc(-c2ccccc2SC)o1 the results were Vaccinia mCherry -11% and Vaccinia Venus -9%.
Screening CC(C#N)Sc1nnc(-c2ccccc2F)n1C1CC1 (centres undefined) returned Vaccinia mCherry inactive and Vaccinia Venus -3%.
Cc1ccccc1OCCC(=O)N(CC(=O)Nc1ccccc1C(F)(F)F)Cc1ccco1 was read as Vaccinia mCherry -3% and Vaccinia Venus -17%.
COc1ccc(NC(=O)c2ccco2)cc1NC(=O)c1ccc(C)c(C)c1 was read as Vaccinia mCherry 1% and Vaccinia Venus -6%.
O=S(=O)(c1ccc(Br)s1)N1CCc2ccccc2C1 was read as Vaccinia mCherry -10% and Vaccinia Venus -12%.

More results follow:
Screening Cc1ccc(NC(=O)C(C)S)cc1 (centres undefined) returned Vaccinia mCherry inactive and Vaccinia Venus -9%.
For O=[N+]([O-])c1ccc(COc2ncnc3ccccc23)cc1 the results were Vaccinia mCherry -15% and Vaccinia Venus -21%.
Screening CCCN(CC(=O)Nc1ccc(F)c(F)c1F)CC(=O)Nc1c(C)n(C)n(-c2ccccc2)c1=O returned Vaccinia mCherry -13% and Vaccinia Venus -11%.
For Cn1c(SCC(=O)Nc2nc3ccccc3s2)ncc(C(=O)Nc2ccc(F)cc2)c1=O the results were Vaccinia mCherry inactive and Vaccinia Venus -11%.
For Cn1c(N)c(S(=O)(=O)NCc2ccccc2)c(=O)n(C)c1=O the results were Vaccinia mCherry inactive and Vaccinia Venus -5%.
`CC(C)NC(=O)c1cc(C2CCCCN2S(=O)(=O)c2cccs2)on1` (centres undefined) gave Vaccinia mCherry inactive and Vaccinia Venus -6%.
For O=C(O)CSCC(=O)Nc1ccc(S(=O)(=O)N2CCCCC2)cc1 the results were Vaccinia mCherry -21% and Vaccinia Venus -13%.
Screening COc1ccc(Cl)cc1NC(=O)CN(C)CC(=O)Nc1ccc(Br)cc1 returned Vaccinia mCherry -22% and Vaccinia Venus inconclusive.
For Nc1c(-c2nc(-c3ccc(Cl)cc3)no2)nnn1-c1ccc(C(F)(F)F)c(Cl)c1 the results were Vaccinia mCherry -3% and Vaccinia Venus -1%.
Cc1ccc(-c2csc(NC(=S)NC(=O)c3cccs3)n2)cc1 was read as Vaccinia mCherry inactive and Vaccinia Venus -1%.
For Cc1ccc(C)c(CN2C[C@H](Sc3nc4ccccc4[nH]3)C[C@H]2C(=O)N2CCCN(C)CC2)c1 the results were Vaccinia mCherry -18% and Vaccinia Venus -9%.
For Cc1ccc(OCCC(=O)N(CCC(C)C)c2c(N)n(Cc3ccccc3)c(=O)[nH]c2=O)cc1 the results were Vaccinia mCherry -4% and Vaccinia Venus -26%.
For C#CCOc1ccc(-c2nnc(Nc3cccc(C)c3)c3ccccc23)cc1 the results were Vaccinia mCherry inconclusive and Vaccinia Venus inconclusive.
CC(C)Cn1c(SC(C)C(=O)Nc2ccc(N3CCOCC3)cc2)nc2ccccc21 (centres undefined) was read as Vaccinia mCherry -30% and Vaccinia Venus -18%.
CN1CCN(C(=O)CCc2nc3ccccc3c(=O)[nH]2)CC1 was read as Vaccinia Venus -5%.
Screening CCOC(=O)CN(C(=O)CNC(=O)c1cccs1)C(C(=O)NC1CCCCC1)c1cccnc1 (centres undefined) returned Vaccinia mCherry -13% and Vaccinia Venus 0%.
O=C(CN(Cc1ccc(F)cc1)C(=O)c1csnn1)NC1CCCC1 was read as Vaccinia mCherry inactive and Vaccinia Venus -1%.
Cc1cc(C)cc(NS(=O)(=O)c2ccc(-n3cccn3)cc2)c1 was read as Vaccinia mCherry -18% and Vaccinia Venus -15%.
Screening CC1=CCC2([N+](=O)[O-])CN(CC(=O)O)CC1([N+](=O)[O-])C2 (centres undefined) returned Vaccinia mCherry -9% and Vaccinia Venus -12%.
`COc1ccc(CN(C(=O)c2ccc3c(c2)OCCO3)C(C(=O)NC2CCCCC2)c2ccc3ncccc3c2)cc1` (centres undefined) gave Vaccinia mCherry -17% and Vaccinia Venus -7%.
`CCCS(=O)(=O)n1nc(-c2ccccc2)cc1N` gave Vaccinia mCherry 10% and Vaccinia Venus -4%.
Screening COc1cc(CCCN2C(=O)C(=O)NC[C@@H]2C(C)O)cc(OC)c1OC (some centres undefined) returned Vaccinia mCherry -13% and Vaccinia Venus 9%.
CCCNc1nc(OCC(F)(F)F)nc(OCC(F)(F)F)n1 was read as Vaccinia mCherry -14% and Vaccinia Venus -7%.
For CC(=O)c1c(C)[nH]c(C(=O)Nc2nccs2)c1C the results were Vaccinia mCherry -3% and Vaccinia Venus inconclusive.
For O=C(/C=C/c1ccccc1)Nc1cccc(C(=O)NC2CC2)c1 the results were Vaccinia mCherry 21% and Vaccinia Venus 5%.
`CCOC(=O)c1ccc(NC(=O)CN(C)S(=O)(=O)c2ccc(OC)cc2)cc1` gave Vaccinia mCherry inactive and Vaccinia Venus -11%.

Source: PubChem BioAssay (National Center for Advancing Translational Sciences (NCATS))
